Screening data deposited in PubChem by Fisher Drug Discovery Resource Center.
NPYLR7 agonist – activates Aedes aegypti NPYLR7 receptor | activation, % at 10 µM | 270,000 tested, 0.15% active | HEK293T NPYLR7/Galpha15, GCaMP6s calcium fluorescence | AID 1259423; in the data active = activation above about 40%;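 also: 0% = vehicle and 100% = reference agonist at the receptor; some compounds past the cut are filed as inactive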
NPYLR7 agonist max-min – second read-out of NPYLR7 agonist, no call of its own (marks repeat the call); activation, %; measured here: Max-Min RFU normalised activation; some inactives read as strong as hits;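 span of the calcium signal over five minutes; 0% = vehicle and 100% = native peptide agonist; compound fluorescence can raise it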
An asterisk follows results filed as active; & = joins results of further samples. Some of the compounds tested; count on the stated rates, not on these rows.

#	canonical_smiles	NPYLR7 agonist	NPYLR7 agonist max-min
1	N=C1c2ccccc2CN1Nc1ncc(C(F)(F)F)cc1Cl	2	5
2	CCc1cccc(NC(=O)Cc2c(C)nn(C)c2C)c1	-2	-2
3	CN1CCN(C(=O)CCC2CCCN(Cc3cccc(C(F)(F)F)c3)C2)CC1 (stereo not drawn)	4	3
4	c1ccc(N2CCC(NCC3CCCCCC3)CC2)nc1	7	3
5	CCC(=O)NC(C#N)=C(Cl)Cl	-3	-8
6	CN(Cc1nc(COc2ccccc2)no1)CC1COc2ccccc2O1 (stereo not drawn)	7	4
7	NC(=O)C1CCCCN1C(=O)Cc1ccc(-c2ccccc2)cc1 (stereo not drawn)	4	0
8	CN=c1scc(-c2ccc(Cl)s2)n1/N=C\c1ccc2c(c1)OCO2	1	0
9	Cc1cccc(N=C2NN=C(c3ccco3)CS2)c1C	-7	-9
10	NC(=O)C(OC(=O)C12CC3CC(CC(C3)C1)C2)c1ccccc1 (stereo not drawn)	2	7
11	C=CCN1C(=O)C(=Cc2cc(OC)cc(OC)c2)SC1=S	-2	31
12	CC(Sc1nc2ccccc2s1)C(=O)N/N=C\c1ccc(Cl)cc1 (stereo not drawn)	3	12
13	CC(Cc1cn(CCCn2ccnc2)nn1)c1ccccc1 (stereo not drawn)	0	5
14	CC(=O)O[C@@H](C)C(=O)N1CCN(c2ncccc2NC(=O)c2ccc3c(c2)OCO3)CC1	-5	-4
15	Cc1nn(CCC#N)cc1C=C1C(=O)NC(=O)NC1=O	0	-1
16	CC(C)(C)NC(=O)N(Cc1nccn1Cc1cccc(F)c1)C1CCCCC1	1	2
17	Cc1nc([N+](=O)[O-])cn1CCC(=O)NNc1nccc(C(F)(F)F)n1	14	8
18	CCOC(=O)c1c(SC(CC)C(=O)OCC)nc(=O)[nH]c1C (stereo not drawn)	19	28
19	COc1ccc(NS(=O)(=O)c2cc(C(=O)Nc3ccccc3)ccc2OC)cc1	-11	-14
20	O=C(Nc1ccccc1)N1CCCC(OCc2cccc(F)c2F)C1 (stereo not drawn)	-4	-3
21	CC1(C(=O)NS(=O)(=O)Cc2cccc(Cl)c2)CCN1C(=O)CCc1ccccc1 (stereo not drawn)	-1	-1
22	CCc1cccc2c(C(CC(=O)NC(C)C)c3ccccc3C(F)(F)F)c[nH]c12 (stereo not drawn)	2	14
23	CC(=O)N1CCc2cc(S(=O)(=O)Nc3ccc(C)cc3Cl)ccc21	6&-4	3&-6
24	COc1ccc2[nH]c3c(c2c1)CCc1nonc1-3	-2	-6

Numbers 8–22 of the list above:
#	canonical_smiles	NPYLR7 agonist	NPYLR7 agonist max-min
8	CN=c1scc(-c2ccc(Cl)s2)n1/N=C\c1ccc2c(c1)OCO2	1	0
9	Cc1cccc(N=C2NN=C(c3ccco3)CS2)c1C	-7	-9
10	NC(=O)C(OC(=O)C12CC3CC(CC(C3)C1)C2)c1ccccc1 (stereo not drawn)	2	7
11	C=CCN1C(=O)C(=Cc2cc(OC)cc(OC)c2)SC1=S	-2	31
12	CC(Sc1nc2ccccc2s1)C(=O)N/N=C\c1ccc(Cl)cc1 (stereo not drawn)	3	12
13	CC(Cc1cn(CCCn2ccnc2)nn1)c1ccccc1 (stereo not drawn)	0	5
14	CC(=O)O[C@@H](C)C(=O)N1CCN(c2ncccc2NC(=O)c2ccc3c(c2)OCO3)CC1	-5	-4
15	Cc1nn(CCC#N)cc1C=C1C(=O)NC(=O)NC1=O	0	-1
16	CC(C)(C)NC(=O)N(Cc1nccn1Cc1cccc(F)c1)C1CCCCC1	1	2
17	Cc1nc([N+](=O)[O-])cn1CCC(=O)NNc1nccc(C(F)(F)F)n1	14	8
18	CCOC(=O)c1c(SC(CC)C(=O)OCC)nc(=O)[nH]c1C (stereo not drawn)	19	28
19	COc1ccc(NS(=O)(=O)c2cc(C(=O)Nc3ccccc3)ccc2OC)cc1	-11	-14
20	O=C(Nc1ccccc1)N1CCCC(OCc2cccc(F)c2F)C1 (stereo not drawn)	-4	-3
21	CC1(C(=O)NS(=O)(=O)Cc2cccc(Cl)c2)CCN1C(=O)CCc1ccccc1 (stereo not drawn)	-1	-1
22	CCc1cccc2c(C(CC(=O)NC(C)C)c3ccccc3C(F)(F)F)c[nH]c12 (stereo not drawn)	2	14

Next section.
#	canonical_smiles	NPYLR7 agonist	NPYLR7 agonist max-min
25	CC1CN(c2nc(Cc3ccc(Cl)cc3)ns2)CCN1C(=O)c1cccc(C(F)(F)F)c1 (stereo not drawn)	-4	8
26	Cc1ccccc1CNC(=O)CNc1ccc(OC2CCOC2)cc1 (stereo not drawn)	2	0
27	CC(=O)c1ccc(S(=O)(=O)NC(C)C(=O)Nc2ccccn2)cc1 (stereo not drawn)	6	2
28	COc1ccc(-c2cc(C(=O)O)n(-c3ccc([N+](=O)[O-])cc3)n2)c(OC)c1	21	23
29	Cc1cc(N2CCOCC2)nc(Nc2ccc(NC(=O)CC(C)(C)C)cc2)n1	12	5
30	NC(=O)CN(Cc1ccc(Br)cc1)C(=O)c1cc(=O)c2ccccc2o1	12	8
31	COC(=O)c1cc2c(=O)n(-c3ccccc3Cl)ccc2nc1C	19	16
32	Cc1ccc(SCc2nnnn2C2CC2)cc1	-2	-6
33	CCC1CN(Cc2ccc(OCC(N)=O)c(Cl)c2)CCN1C(C)C (stereo not drawn)	-3	-11
34	Cc1ccn(CC(=O)N2CCC(n3nccc3NC(=O)C3CCCC3)CC2)n1	-5	-6
35	Cc1[nH]nc(CCC(=O)N2CCC3(CCCN(CCc4ccccc4)C3)C2)c1C (stereo not drawn)	9	5
36	C=CCN(Cc1cccs1)Cn1[nH]c(-c2ccccc2)nc1=S	2	3
37	Cc1cc(C)c(NC(=O)Cn2nc(-c3ccccc3)c3sc(N4CCOCC4)nc3c2=O)c(C)c1	-2	-9
38	C=C(C)CNC(=S)N=Nc1c(O)[nH]c2ccc([N+](=O)[O-])cc12	2	6
39	COc1cc(-c2cc3c(cn2)ncn3CCN2CCOCC2)cc(OC)c1OC	-11	-12
40	Cc1ccc2c(c1)C1(NCCS1)C(=O)N2Cc1ccc(F)cc1F (stereo not drawn)	27	32
41	CCCC(=O)OCc1nc2sccn2c1Br	-3	-5
42	CCOC(=O)c1c(C)n(-c2ccccc2)c2ccc(OC(=O)c3ccc(S(=O)(=O)N4CCCCC4)cc3)cc12	-10	-12
43	COc1cccc(CNC(=O)c2cc(-c3cccs3)nc3cc(C)c(C)cc23)c1	3	-3
44	O=C(CSc1nnc2c(Cl)cc(Cl)cn12)NC(=O)NC1CCS(=O)(=O)C1 (stereo not drawn)	14	19
45	COc1ccc(CCOC(=O)[C@@H]2CCCN2C(=O)c2ccc(C(F)(F)F)c(F)c2)cc1OC	-12	-17
46	Cc1cc2nc(SCC(=O)O)[nH]c2cc1C	-4	-6
47	CN1C(=O)C(=O)N(CC(=O)N2N=C(c3cccs3)CC2c2cccs2)C1=O (stereo not drawn)	-2	-2
48	O=C(CCc1csc(NC(=O)c2ccc[nH]c2=O)n1)Nc1nc2ccccc2s1	-5	-12
49	CC(N)CC(=O)c1ccc(F)cc1 (stereo not drawn)	2	-2
50	COc1ccc(CCNc2cc(C)nc3c(-c4ccccc4)c(C)nn23)cc1OC	-4	-5
51	O=C1C2C3C=CC(C4CC34)C2C(=O)N1NC(=O)C12CC3CC(CC(C3)C1)C2 (stereo not drawn)	4	4
52	C=C(C)CN(CC)Cc1nc(-c2ccccn2)no1	11	11
53	Cc1ccc(-c2nc(CCNC(=O)NCC3CCCO3)co2)cc1 (stereo not drawn)	-7	-8
54	Cc1nn(-c2ccccc2)c(C)c1CN(C)C(=O)CCCNC(=O)NC1CCCCC1	4	-2
55	COCCN(CC(=O)Nc1nc(CC(=O)NCc2ccc3c(c2)OCO3)cs1)C(=O)c1ccc(Cl)cc1Cl	18	16
56	CCc1nc(C2CCCN2CCCS(=O)(=O)c2ccccc2)no1 (stereo not drawn)	-3	-6
57	O=C(c1ccccc1F)N1CCCC(N2CCN(Cc3ccc4c(c3)OCO4)CC2)C1 (stereo not drawn)	10	5
58	CC(Sc1nc2ccccc2[nH]1)C(=O)N/N=C\c1cc(Br)ccc1O (stereo not drawn)	-10	-16
59	COc1cc(Nc2cc3c(cn2)cc(-c2cccc(N(C)C(C)=O)c2)n3C)cc(C(F)(F)F)c1	15	25
60	Cc1ccc(C=C2NC(=S)N(Cc3ccccc3)C2=O)o1	14	11
61	COc1ccc(-n2nc([N+](=O)[O-])c(=NC(C)c3ccccc3)n2O)cc1 (stereo not drawn)	-7	-8
62	COC(=O)C1CCN(C(=O)C2CC2c2cccc(Br)c2)CC1 (stereo not drawn)	12	7
63	Cc1cc(NC(=O)C(C)Nc2ccc(Br)c(C)c2)on1 (stereo not drawn)	-2	-4
64	Cc1csc(NC(=O)c2ccc(CN(C)CC(C)C)cc2)n1	17	3
65	Fc1ccc2nc(C3CCCN3Cc3nc(-c4ccco4)no3)[nH]c2c1 (stereo not drawn)	-1	0
66	Cc1ccccc1CSCCNC(C)CO (stereo not drawn)	0	-1
67	CCc1nc(C)c(CN)s1	3	2
68	COc1ccc(OC)c(N=C(C)c2c(C)[nH]n(-c3nc4ccccc4s3)c2=O)c1	-13	-24
69	O=[N+]([O-])c1ccc(/C=N\O)o1	-20	-25
70	CC(C)(C)CC(=O)Nc1ccc(Cl)c(C(=O)Nc2cn[nH]c2)c1	8	6
71	CCN1CCc2c(sc3nc(C(C)C)nc(N4CCN(C(=O)Nc5ccc(F)cc5F)CC4)c23)C1	-8	4
72	COc1cc(=O)n(-c2ccccc2C)nc1C(=O)N1CCN(C(C)=O)CC1	1	1
73	CCOCCCNC(=O)Nc1cn(CC)c2ccccc12	1	-1
74	Cc1ccc(NC(=O)CSc2nccn3nc(-c4ccc(C)cc4)cc23)cc1	3	-2
75	CN1CCC2(CC1)CN(C(=O)c1cccc(C#CC(C)(C)O)c1)CCN2C	9	9
76	Cc1cc(C(=O)N(Cc2cccnc2)c2nc3c(F)cccc3s2)no1	2	0
77	O=C(CSC1CC(=O)N(c2ccccc2)C1=O)NC(c1ccccc1)c1ccc(Cl)cc1 (stereo not drawn)	-6	-10
78	CSCC(C)NC(=O)NCC(O)c1c(F)cccc1F (stereo not drawn)	0	-6
79	COc1ccc(NC(=O)C2CC(=O)N(C)C(=Nc3ccc(C)c(C)c3)S2)cc1 (stereo not drawn)	3	1
80	O=C(Nc1ccc(N2CCCC2)c(C(=O)NCc2ccccc2)c1)Nc1ccc(F)cc1F	-5	-1
81	CC1(C(=O)NCc2ccc3c(c2)OCO3)CCN1Cc1cc2ccccc2o1 (stereo not drawn)	6	-1
82	COc1ccc(C(=O)NNC(=O)Cc2ccc(Cl)c(Cl)c2)cc1OC	-2	-5
83	CC(C)c1nnsc1CN1CCOC(C(F)(F)F)C1 (stereo not drawn)	-8	-11
84	CCCSc1ncccc1C(=O)NC(c1ccccc1)c1ccc(Cl)cc1 (stereo not drawn)	-1	-6

The list goes on:
#	canonical_smiles	NPYLR7 agonist	NPYLR7 agonist max-min
85	Cc1nc(SCC(=O)NC(=O)Nc2ccccc2F)c(C#N)c(C)c1C	0	-1
86	CC(C)CN(CC(=O)Nc1nc(CC(=O)N2CCN(c3cccc(C(F)(F)F)c3)CC2)cs1)C(=O)c1ccccc1Cl	23	19
87	CCCCc1cnc2c(c1SCC(=O)Nc1nnc(CC)s1)c(=O)n(C)c(=O)n2C	9	15
88	N#CC(=CC(Br)=Cc1ccccc1)c1nc(-c2ccccc2)cs1	7	8
89	C#CCN(Cc1nc(-c2ccc(F)cc2F)oc1C)C1CCCCC1	-3	-4
90	COCC(=O)N1CCCC(OCc2cc(OC)cc(OC)c2)C1 (stereo not drawn)	3	11
91	Cc1nc(CSc2nnc3ccc(-c4cccc([N+](=O)[O-])c4)nn23)cs1	-13	-12
92	Cc1ccc(CSc2nc(C)cc(Oc3cccc(C)c3C)n2)cc1	-10	-4
93	NS(=O)(=O)c1ccc(NC(=O)c2cn(Cc3ccccc3)nc2OCc2ccccc2)cc1	17	4
94	Clc1nc2c(Cl)c(Cl)ccc2s1	-4	-10
95	CCN(CC)S(=O)(=O)c1ccc(F)c(C(=O)OC)c1F	-1	-2
96	COc1ccc2cc(CN3CCN([C@H]4CCCC[C@@H]4O)CC3)c(=O)[nH]c2c1	4	3
97	CCC(C)NC(=O)C1CCCN1C(=O)c1csc(Nc2ccccc2OC)n1 (stereo not drawn)	4	2
98	O=C(c1ccc(CSc2nc(Cl)cc(N3CCN(c4ccccc4Cl)CC3)n2)cc1)N1CCN(c2cccc(C(F)(F)F)c2)CC1	23	26
99	CCN(CC1CCN(CCc2ccccc2C)CC1)C(=O)[C@H]1C[C@@H]2C=C[C@H]1C2	19	15
100	Cc1ccc(OCC(=O)N/N=C2\CCCCC2C)c(C(C)C)c1 (stereo not drawn)	-1	-6
101	Cn1nnnc1SCCNC(=O)C1(c2ccccc2F)CC1	28	13
102	CCC(C(=O)NCCOC)n1c(=O)n(Cc2ccccc2)c(=O)c2ccccc21 (stereo not drawn)	14	19
103	Cc1ccc(Cl)cc1-n1ccc2nc(N3CCCCC3)ncc2c1=O	-4	-2
104	Cc1ccc(C(=O)N(CCCN2CCOCC2)c2nc3ccc(F)cc3s2)cc1	-3	-8
105	CC(C)NC(=O)Cn1nc(C2CC2)c2cnn(-c3cccc(Cl)c3)c2c1=O	9	3
